Screening data: PubChem, Broad Institute
rRNA inh HTS – selective bacterial rRNA inhibition in E. coli; AID 720706; GFP signal change (wild-type ribosome), % (no concentration beside the values); E. coli WT GFP vs humanized-ribosome RFP mutants, fluorescence, 24 h; active compounds read low; DMSO median 0, no signal -100; 350,000 tested, 1.6% active;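 active = significant combined selectivity score with lowered wild-type GFP, culture density cut under 30%, mutant RFP and density less affected; inactive = any of these conditions unmet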; note: one replicate is shown; some compounds called inactive have numbers as strong as hits
FGF22 binding – shifts melting point of recombinant human FGF22 | recombinant FGF22 thermal shift, SYPRO orange fluorescence; percent of sucrose octasulfate shift, DMSO zero | AID 651658 | calls only at 9.99 µM | 340,000 tested, 1.5% active;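 active = melting point raised past a set limit in the mean and every replicate; three in four hits are not shown here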
Target sequence (Q9HCT0 whole entry, looked up): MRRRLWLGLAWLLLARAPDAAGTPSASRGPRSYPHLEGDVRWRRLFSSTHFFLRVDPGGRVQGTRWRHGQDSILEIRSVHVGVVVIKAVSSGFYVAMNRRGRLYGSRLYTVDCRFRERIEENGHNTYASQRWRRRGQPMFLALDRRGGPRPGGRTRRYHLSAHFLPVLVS
AF4-AF9 inh – inhibitors of human MLL-AF4/AF9 interaction. P42568. AlphaScreen, biotin-AF4 peptide binding to FLAG-AF9. inhibition, % at 10 µM. 350,000 tested, 0.47% active;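 active = every replicate reaching a set inhibition limit, whatever the replicate mean, cut at about 25% in these data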;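 note: 0% = plate neutral control median and 100% = total signal loss; the record names both 10 and 1 µM as test concentration; the first replicate is given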
Target sequence (P42568 whole entry, looked up): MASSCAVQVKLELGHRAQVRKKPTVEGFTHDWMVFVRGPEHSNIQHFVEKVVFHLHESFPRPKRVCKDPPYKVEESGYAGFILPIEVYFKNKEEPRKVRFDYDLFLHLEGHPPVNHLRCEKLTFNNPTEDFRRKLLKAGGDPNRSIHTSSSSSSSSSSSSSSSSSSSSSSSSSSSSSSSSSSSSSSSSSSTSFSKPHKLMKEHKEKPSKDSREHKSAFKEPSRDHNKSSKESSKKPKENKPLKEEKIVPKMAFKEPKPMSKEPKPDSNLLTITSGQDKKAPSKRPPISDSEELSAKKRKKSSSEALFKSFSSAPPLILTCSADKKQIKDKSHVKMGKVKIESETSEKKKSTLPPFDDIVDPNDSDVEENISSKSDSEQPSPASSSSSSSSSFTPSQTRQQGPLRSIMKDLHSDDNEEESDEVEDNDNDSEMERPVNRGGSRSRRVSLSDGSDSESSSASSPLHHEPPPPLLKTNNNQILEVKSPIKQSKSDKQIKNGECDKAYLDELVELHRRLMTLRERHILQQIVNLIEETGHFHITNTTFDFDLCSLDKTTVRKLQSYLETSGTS
rRNA inh HTS OD600 – second read-out of rRNA inh HTS, no call of its own (marks repeat the call); OD600 change, %; measured here: OD600 growth;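 optical density of the mix in the first replicate; 0 = DMSO median and -100 = no signal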
rRNA inh HTS RFP – also measured in rRNA inh HTS; calls as there; RFP signal change, %; measured here: RFP humanized mutant strains;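 first replicate; 0 = DMSO median and -100 = no signal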
Numbers without * were called inactive; i = inactive; nt = no result given; & = joins results of further samples.

SMILES | rRNA inh HTS | rRNA inh HTS OD600 | rRNA inh HTS RFP | FGF22 binding | AF4-AF9 inh
N#C[C@H]1N[C@@H](CO)[C@H]1c1ccc(C#Cc2ccccc2F)cc1 | 0 | -6 | 6.9 | i | -1.3
CCC(=O)N(C)C[C@@H]1Oc2cc(-c3ccncc3)ccc2S(=O)(=O)N([C@H](C)CO)C[C@H]1C | -2 | -4 | -1.2 | i | -2.2
O=C(C[C@H]1C[C@@H]2c3cc(NC(=O)c4cccnc4)ccc3O[C@@H]2[C@@H](CO)O1)NCc1cccc(F)c1 | 2 | 1 | -1.8 | i | 0.0
Cc1csc(-c2cc(C(=O)NCc3ccc(F)cc3)n[nH]2)c1 | -3 | 12 | 5.5 | i | -5.9
OC(c1ccc(Cl)c(Cl)c1)c1ncc(-c2ccc(Cl)cc2)[nH]1 (configuration not stated) | -59 | -81 | -20 | i | 5.2
COc1ccc(C(C#N)=Cc2ccc(OC)c(OC)c2)cc1 | -44 | -68 | -12 | i | 6.4
O=C(C(=O)N1CCN(S(=O)(=O)c2ccccc2)CC1)c1cccc(C(F)(F)F)c1 | 5 | -1 | 7.4 | i | -1.2
C[C@@H]1CCCCO[C@@H](CN(C)Cc2ccccc2)[C@H](C)CN([C@H](C)CO)C(=O)c2cc(NC(=O)Cc3ccccc3)ccc2O1 | -2 | -1 | -1.7 | i | 3.9
CN1C(=O)c2cc(NC(=O)c3cccs3)ccc2OC[C@@H]2O[C@@H](CC(=O)NCCN3CCCCC3)CC[C@H]21 | 4 | 13 | -1.6 | i | 0.8
C[C@@H]1CN([C@@H](C)CO)S(=O)(=O)c2ccc(C#CC3CCCC3)cc2O[C@H]1CN(C)Cc1cncnc1 | -32 | -55 | 22 | i | 7.7
Cc1cc(C(=O)Nc2cccc3c2O[C@@H](CN(C)Cc2ccc(Cl)c(Cl)c2)[C@H](C)CN([C@H](C)CO)C3=O)n(C)n1 | -14 | -27 | -3.3 | i | 2.9
COc1ccccc1C#Cc1cnc2c(c1)C(=O)N([C@H](C)CO)C[C@H](C)[C@H](CN(C)C(=O)CC1CC1)O2 | 1 | -1 | 2.1 | i | -0.8
C[C@@H]1CN([C@H](C)CO)C(=O)CCCn2nncc2CO[C@H]1CN(C)S(=O)(=O)c1ccccc1F | 8&3 | 2&2 | 1.9&1.0 | i | -1.1&0.7
CC(=O)Nc1cccc(OCCCOc2cccc([N+](=O)[O-])c2)c1 | -5.5* | 10* | 8.9* | i | 2.8
C[C@@H]1CCCCO[C@@H](CN(C)S(=O)(=O)c2ccccc2)[C@@H](C)CN([C@@H](C)CO)C(=O)c2cc(NS(=O)(=O)c3cccs3)ccc2O1 | -1 | -4 | -0.7 | i | -2.6
O=C(Nc1ccccc1)C1CCN(S(=O)(=O)c2cccs2)CC1 | -5 | -10 | -2.2 | i | -2.0
CC(=O)N(C)C[C@H]1OCc2ccccc2-c2c(n(C)c3ccccc23)C(=O)N([C@@H](C)CO)C[C@H]1C | 0 | -3 | -0.2 | i | -2.6
O=C(N[C@H]1CC[C@H](CCn2cc(-c3cccnc3)nn2)O[C@@H]1CO)c1ccccc1F | 3 | 2 | -3.0 | i | 2.4
O=C(C[C@@H]1C[C@H]2c3cc(NC(=O)CC4CC4)ccc3O[C@H]2[C@H](CO)O1)NCc1cc(F)ccc1F | -2 | -6 | 0.7 | i | -0.2
OCC[C@@H]1C[C@H](O)[C@@H](O)[C@]2(OCCc3cc(C(F)(F)F)ccc32)O1 | 5 | 10 | -0.3 | i | -2.1
CCC(=O)N1CCCCN2[C@H](C1)[C@H](c1ccc(-c3cccnc3)cc1)[C@@H]2CO | 3 | 18 | 0.9 | i | -0.2
C[C@H]1CN([C@@H](C)CO)C(=O)c2cc(/C=C/c3ccccc3)cnc2O[C@@H]1CN(C)Cc1ccncc1 | -3 | 0 | 2.6 | i | 11
C[C@@H]1CN([C@@H](C)CO)S(=O)(=O)c2ccc(-c3cncnc3)cc2O[C@@H]1CN(C)C(=O)Cc1ccncc1 | -2 | 5 | -5.3 | i | 5.4
Cc1ccc(S(=O)(=O)N(C)C[C@@H]2Oc3ccc(NC(=O)CCCCCC(=O)Nc4ccccc4N)cc3CC(=O)N([C@@H](C)CO)C[C@H]2C)cc1 | -4 | 1 | -1.9 | i | 0.2
CC(C)CC#Cc1cnc2c(c1)C(=O)N([C@H](C)CO)C[C@H](C)[C@H](CN(C)C(=O)NC1CCCC1)O2 | 5 | 13 | -1.7 | i | -3.3
O=C(CN1C(=O)CSc2ccc(S(=O)(=O)N3CCCCCC3)cc21)NCCc1ccccc1 | -13 | -33 | 0.5 | i | 3.0
COc1ccc(CNC(=O)C[C@@H]2CC[C@H](NC(=O)CN(C)C)[C@H](CO)O2)cc1 | -2 | 0 | 1.2 | i | -0.2
CC(=O)N1CCC(C(=O)Nc2ccc(S(=O)(=O)N3CCCC(C)C3)cc2)CC1 (configuration not stated) | 5 | 10 | -0.6 | i | -1.6
CCOC(=O)c1[nH]c2c(OCC)nc(OCC)nc2c1Br | 1 | 8 | -1.7 | i | -5.2
O=S(=O)(c1ccccc1F)N1CC[C@@H]2[C@H](CO)Nc3ccc(C4=CCCCC4)cc3[C@@H]21 | -13 | -33 | -0.9 | i | -0.2
COc1ccc(-c2cnc3c(c2)C(=O)N([C@H](C)CO)C[C@@H](C)[C@@H](CN(C)C(=O)Cc2ccccc2)O3)cc1 | -2 | -6 | -3.1 | i | -3.8
O=C(C[C@H]1CC[C@H]2[C@@H](COC[C@H](O)CN2Cc2cc(F)cc(F)c2)O1)NCc1cccc(F)c1 | -6 | -16 | 1.2 | i | -4.2
Cc1noc(C)c1NC(=O)N(C)C[C@H]1Oc2c(NC(=O)C3CC3)cccc2C(=O)N([C@H](C)CO)C[C@H]1C | 4 | -1 | -0.5 | i | -2.9
COc1ccc(NC(=O)N2CCCCN3[C@H](CO)[C@@H](c4ccc(C#CCC(C)C)cc4)[C@H]3C2)cc1 | -57 | -64 | -5.0 | i | 19
CO[C@H](CN(C)C(=O)c1cc(Cl)cc(Cl)c1)[C@H](C)CN(C(=O)Nc1ccc(F)cc1)[C@@H](C)CO | -4 | -15 | -5.0 | i | 0.1
CNC(=O)C[C@@H]1CC[C@H]2[C@H](COc3ccc(NC(=O)c4cccc(F)c4)cc3C(=O)N2C)O1 | 1&-1 | 4&-9 | -4.3&-0.7 | i | 0.9&-1.0
O=C(/C=C/c1ccccc1Cl)OCC(=O)N1CCc2ccccc21 | 0 | -4 | -0.5 | i | -0.1
CN1CCN(C(=O)C[C@H]2CC[C@H]3[C@@H](COC[C@H](O)CN3C(=O)Nc3cc(Cl)cc(Cl)c3)O2)CC1 | -37 | -51 | 0.1 | i | 3.3
CN1CCN(C(=O)C[C@@H]2CC[C@H]3[C@@H](COC[C@@H](O)CN3Cc3cccc(-c4ccncc4)c3)O2)CC1 | -3 | 4 | -0.1 | i | -2.5
COC(=O)CC#C[C@H](C)[C@@H](NS(=O)(=O)c1ccc([N+](=O)[O-])cc1)C(C)(C)C | -13* | -6.3* | -2.7* | nt | 2.5
Cc1noc(C)c1S(=O)(=O)Nc1cccc2c1O[C@@H](CN(C)C(=O)Nc1ccc(F)cc1)[C@@H](C)CN([C@H](C)CO)C2=O | -3 | 6 | 1.0 | i | -3.4
COc1ccc(-c2cc(C(F)(F)F)nc(S(=O)(=O)CCCC(=O)Nc3cccnc3Cl)n2)cc1OC | 12 | 4 | 10 | nt | 0.4
CO[C@H]1CN(C)C(=O)c2cc(NC(=O)NC(C)C)ccc2OC[C@@H](C)N(Cc2ccccn2)C[C@H]1C | 1 | 2 | -1.1 | i | 0.2
C[C@@H]1CN([C@@H](C)CO)C(=O)Cc2cc(NC(=O)Nc3ccc(C(F)(F)F)cc3)ccc2O[C@H]1CN(C)Cc1ccncc1 | -9 | -45 | 27 | i | 0.8
COc1ccc(S(=O)(=O)N(C)C[C@@H]2OCCCC[C@@H](C)Oc3ccc(NC(=O)c4ccccc4)cc3C(=O)N([C@@H](C)CO)C[C@@H]2C)cc1 | -1 | 3 | -0.3 | i | -0.1
Cc1noc(C)c1NC(=O)N1C[C@H](O)COC[C@H]2O[C@@H](CC(=O)NCC3CC3)CC[C@@H]21 | 1 | 8 | -1.3 | i | -0.5
COc1cccc(NC(=O)N2[C@@H](CO)[C@H](c3ccccc3)[C@@H]2CNC(C)C)c1 | 6 | -4 | -2.3 | i | 2.3
CO[C@H]1CN(C)C(=O)c2ccc(NC(=O)C3CCC3)cc2OC[C@H](C)N(Cc2ccc(F)cc2)C[C@@H]1C | -2&-1 | -22&-9 | 11&2.8 | i | 1.3&3.0
CC(C)NC(=O)N(C)C[C@@H]1OCCCC[C@H](C)Oc2ccc(NC(=O)c3ccncc3)cc2C(=O)N([C@H](C)CO)C[C@@H]1C | 1 | 6 | -2.6 | i | -4.1
CCCNC(=O)Nc1ccc2c(c1)OC[C@H](C)N(Cc1cccnc1)C[C@H](C)[C@@H](OC)CN(C)C2=O | 1 | 3 | 1.4 | i | 1.1
CCCNC(=O)C[C@@H]1CC[C@@H]2[C@H](COC[C@H](O)CN2C(=O)c2ccccn2)O1 | 3 | -2 | -2.7 | i | -0.3
C[C@H](CO)N1C[C@H](C)[C@H](CN(C)S(=O)(=O)c2cn(C)cn2)Oc2c(NC(=O)c3ccc(-c4nccs4)cc3)cccc2C1=O | 1 | 12 | 1.2 | i | -0.6
C[C@H](CO)N1C[C@H](C)[C@H](CN(C)S(=O)(=O)c2ccc(-n3cccn3)cc2)OCc2cnnn2CCCC1=O | 1&-1 | 6&-4 | -2.4&-0.4 | i | -1.2&2.8
C[C@@H]1CCCCO[C@@H](CN(C)S(C)(=O)=O)[C@@H](C)CN([C@H](C)CO)C(=O)c2cc(NS(=O)(=O)c3ccc(F)cc3)ccc2O1 | -1 | 5 | -1.3 | i | -2.6
CCC(Oc1ccccc1)C(=O)OCC(=O)Nc1c(C)nn(-c2ccccc2)c1C (configuration not stated) | 3 | 2 | -1.6 | i | -1.2
COc1cccc(C#Cc2cnc3c(c2)C(=O)N([C@H](C)CO)C[C@H](C)[C@@H](CN(C)C)O3)c1 | 5 | 15 | 0.4 | i | 17
COc1ccc(NC(=O)N2C[C@H]3[C@@H](c4ccccc42)[C@H](CO)N3C(=O)C2CCCCC2)cc1 | -2 | -1 | -2.3 | i | 0.9
COc1ccc(S(=O)(=O)N2CCN(C(=O)C3CC(=O)N(c4ccccc4F)C3)CC2)cc1OC (configuration not stated) | 9 | 18 | 0.0 | i | -2.2
CCCCNC(=O)C1(C)CCN1C(=O)c1oc2ccccc2c1C (configuration not stated) | -4 | -10 | 0.4 | i | -2.6
CCC(=O)N1CCCCN2[C@@H](CO)[C@H](c3ccc(C#CCOC)cc3)[C@@H]2C1 | 6 | 6 | -3.1 | i | -1.3
Remaining list, next part:
SMILES | rRNA inh HTS | rRNA inh HTS OD600 | rRNA inh HTS RFP | FGF22 binding | AF4-AF9 inh
O=C(C1CC1)N1CCCCN2[C@H](CO)[C@H](c3ccc(-c4cccc(F)c4)cc3)[C@@H]2C1 | -10 | -51 | 4.0 | i | 0.0
CC=Cc1ccc2n(c1=O)C[C@@H]1[C@@H](CO)[C@H](C(=O)NCC)[C@H]2N1Cc1cccc(Cl)c1 (mixture of isomers) | 2 | -9 | 0.4 | i | -0.7
COc1ccc2c3c(n(C)c2c1)[C@H](CO)N(Cc1cccc(Cl)c1)CC31CN(C(=O)C2CC2)C1 | -7 | -21 | 9.3 | i | -1.4
CCCC#Cc1cnc2c(c1)C(=O)N([C@@H](C)CO)C[C@H](C)[C@@H](CN(C)C(=O)c1cnccn1)O2 | -2 | 7 | -6.9 | i | -5.2
CC(C)CC#Cc1ccc2c(c1)O[C@@H](CN(C)C(=O)c1ccccn1)[C@H](C)CN([C@@H](C)CO)S2(=O)=O | -4 | -15 | 1.9 | i | 4.7
C[C@@H]1CN([C@@H](C)CO)C(=O)CCCn2cc(nn2)CO[C@H]1CN(C)C(=O)Nc1ccc2c(c1)OCO2 | 2&18 | -3&15 | 0.9&3.8 | i | -0.6&-1.4
CCCCCCn1cc(CN2CC(N(C)C)CS2(=O)=O)nn1 (configuration not stated) | 11 | 16 | -2.8 | i | -0.4

Two neighbouring records from above, quoted:
SMILES | rRNA inh HTS | rRNA inh HTS OD600 | rRNA inh HTS RFP | FGF22 binding | AF4-AF9 inh
C[C@@H]1CN([C@@H](C)CO)C(=O)CCCn2cc(nn2)CO[C@H]1CN(C)C(=O)Nc1ccc2c(c1)OCO2 | 2&18 | -3&15 | 0.9&3.8 | i | -0.6&-1.4
CCCCCCn1cc(CN2CC(N(C)C)CS2(=O)=O)nn1 (configuration not stated) | 11 | 16 | -2.8 | i | -0.4

Whole records as entered above:
CCCC#Cc1cnc2c(c1)C(=O)N([C@@H](C)CO)C[C@H](C)[C@@H](CN(C)C(=O)c1cnccn1)O2 in the list: rRNA inh HTS = -2; rRNA inh HTS OD600 = 7; rRNA inh HTS RFP = -6.9; FGF22 binding = i; AF4-AF9 inh = -5.2
CC(C)CC#Cc1ccc2c(c1)O[C@@H](CN(C)C(=O)c1ccccn1)[C@H](C)CN([C@@H](C)CO)S2(=O)=O in the list: rRNA inh HTS = -4; rRNA inh HTS OD600 = -15; rRNA inh HTS RFP = 1.9; FGF22 binding = i; AF4-AF9 inh = 4.7

A portion of the library; count on the stated rates, not on these rows.
